Assay outcomes from PubChem BioAssay.
VDR inh: vitamin D3 receptor (human) inhibition; actives 0.93% (n = 400,000); Potency, µM, inactives show max response, negative = inhibition, hits mostly inhibitors; AID 504847; P11473; VDR-SRC2-3 peptide fluorescence polarization, 2 h; active means well fitted inhibition curve with a large enough effect; inconclusive means small, poorly fitted or top-dose-only effect, or another doubt; inactive means no such curve, though single readings can be large or run the other way; further: series mostly up to about 120 µM
Target sequence (P11473 whole entry, looked up): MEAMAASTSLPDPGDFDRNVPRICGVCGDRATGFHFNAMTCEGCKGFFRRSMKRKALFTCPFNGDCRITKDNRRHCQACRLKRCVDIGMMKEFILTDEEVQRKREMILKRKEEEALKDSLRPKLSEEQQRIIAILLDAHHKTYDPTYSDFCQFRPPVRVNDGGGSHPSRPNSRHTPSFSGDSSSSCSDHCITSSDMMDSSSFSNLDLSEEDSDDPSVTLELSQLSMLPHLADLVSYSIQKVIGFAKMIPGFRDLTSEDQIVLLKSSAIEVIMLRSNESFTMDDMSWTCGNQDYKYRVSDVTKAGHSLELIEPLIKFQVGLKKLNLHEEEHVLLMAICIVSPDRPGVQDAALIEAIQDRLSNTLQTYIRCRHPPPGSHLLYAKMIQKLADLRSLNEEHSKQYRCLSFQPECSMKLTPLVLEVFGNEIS
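Signal is fluorescence polarization, reporting how far test compounds block the interaction of VDR with the SRC2-3 coregulator peptide after a 2 h room-temperature incubation.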
The depositor's hits bear a star; ? = inconclusive; & = joins results of further samples. On the % scale 0 is the no-effect control and ±100 the full control effect; potency means the concentration at half of the fitted maximal effect.

SMILES	VDR inh
CCCS(=O)(=O)N1CCC(n2c(C(F)(F)F)nc3cccnc32)CC1	0%
CCC1=Nc2cc(C(=O)NCCN3CCOCC3)ccc2Sc2ccccc21	16%
Cc1ccc(Nc2nc3ccccc3c(=O)s2)cc1C	0%
O=c1c2ccccc2nc(COc2ccccc2)n1/N=C/c1ccc(O)c(O)c1	1%
COc1ccc(CNC(=O)COC(=O)CC2CC3CCC2C3)cc1OC (centres undefined)	-26%
O=C(CCl)N=c1sccn1Cc1cccc2ccccc12	-12%
O=C(NCCc1ccccc1)C1CCN(C(=O)Nc2ccccc2)CC1	-1%
Cc1cc(C)nc(NC(=O)c2c(F)c(F)c(F)c(C(=O)Nc3cc(C)cc(C)n3)c2F)c1	-13%
COc1ccc(-c2noc(CCCC(=O)N3CCOCC3)n2)cc1	9%
Cc1ccc2[nH]c(=O)c(CN(CCCN(C)C)C(=S)NCCc3ccccc3)cc2c1	-7%
COc1ccc(/C=N/NC(=O)c2nc(-c3ccccc3)n(-c3ccccc3)n2)cc1	-6%
COc1ccc(-c2ccc(CCC(=O)O)o2)cc1	?
COc1ccc(CNC(=O)c2cccc(S(=O)(=O)N3CCCCC3)c2)cc1OC	15%
CCC(=O)Oc1ccc(C(=O)Nc2ccccc2C(=O)NCC(C)C)cc1	4%
COc1cccc(NC(=O)c2ccc(NC(=O)C(C)(C)C)cc2)c1	-6%
O=C1C[C@@H]2CCN3C(=O)CCC[C@@H]([C@H]23)[C@@H]1Cc1ccccc1	-9%&0%
O=C(CCc1cn(Cc2ccccc2Cl)c2ccccc12)NC1CCCCC1	3%
O=C(COC(=O)c1cccc2ccccc12)Nc1ncc(C(F)(F)F)cc1Cl	-11%
O=C(CC(c1ccccc1)c1cc(Br)ccc1O)NCCCN1CCOCC1 (centres undefined)	-2%
O=C1CC(C(=O)N2CCN(c3ccccc3Cl)CC2)CN1Cc1ccccc1 (centres undefined)	-11%
COc1ccc(NS(=O)(=O)c2cc(NC(=O)[C@@H](NC(N)=O)C(C)C)ccc2C)cc1	-6%
CC(=O)c1ccc(NS(=O)(=O)c2ccc3[nH]c4c(c3c2)CCCC4)cc1	16%
Nc1c(C(=O)CSc2nc(-c3ccccc3)cs2)c(=O)[nH]c(=O)n1C1CC1	-4%
CCOC(=O)C1=C(C)N(c2ccccc2)C(=O)C1CC(=O)O (centres undefined)	13%
O=C(NCc1cccnc1)c1ccc(-c2cc3ccccc3oc2=O)cc1	18%
CCC(CC)C(=O)Nc1nc2c(s1)CC(C)CC2 (centres undefined)	12%
CCS(=O)(=O)c1nc(S(=O)(=O)c2ccc(Cl)cc2)c(N2CCOCC2)s1	-3%
COc1ccc(C(=O)C2CCCN(C(=O)CCC3=NNC(=O)CC3)C2)c(C)c1 (centres undefined)	-13%
CC(=O)CCc1oc2ccc(NC(C)=O)cc2c1-c1ccc(C)o1	-9%
Cc1ccc(NC(=S)N(C)Cc2cn(C)c3ccccc23)cc1	-8%

In the list so far, 3 contain fluorine.
SMILES	VDR inh
CCCS(=O)(=O)N1CCC(n2c(C(F)(F)F)nc3cccnc32)CC1	0%
Cc1cc(C)nc(NC(=O)c2c(F)c(F)c(F)c(C(=O)Nc3cc(C)cc(C)n3)c2F)c1	-13%
O=C(COC(=O)c1cccc2ccccc12)Nc1ncc(C(F)(F)F)cc1Cl	-11%

Continued.
SMILES	VDR inh
CCOC(=O)C1CCN(S(=O)(=O)c2ccc3c(c2)N(C(C)=O)CCO3)CC1	-2%
CC(NS(=O)(=O)c1ccc(CCC(=O)N2CCN(C)CC2)cc1)c1ccccc1 (centres undefined)	4%
COc1ccc(S(=O)(=O)Nc2cc(Cl)ccc2OC)cc1	-13%
CCCCn1nc(NC(=O)c2cccc(Cl)c2)c2cc3cccc(C)c3nc21	0%
CCC(C)C(=O)Nc1cc(Cl)ccc1C(=O)O (centres undefined)	1%
CCc1cc2ccccc2nc1SCC(=O)Nc1cc(OC)c(OC)cc1C(=O)O	?
O=C(CN(C(=O)CCC(=O)Nc1ccccn1)c1ccc(F)cc1)NCc1ccco1	-5%
CN(C)C(=S)Nc1ccc(Br)cc1Cl	2%
COc1ccc(OCCOc2ccc(N(C)S(=O)(=O)c3ccccc3)cc2)cc1	-20%
CCCN(CC1CC1)c1nc(N)c2c(N)nc(OC)cc2c1C#N	3%
CCc1ccc(CNC(=O)c2cnc3sc(N(CC)CC)nn3c2=O)cc1	3%
CN(C)C(=O)CSc1ncnc2scc(-c3ccccc3)c12	24%
CCN(C(=O)COC(=O)c1ccccc1Nc1cccc(C)c1C)C1CCS(=O)(=O)C1 (centres undefined)	3%
C/C(=N\NC(=O)c1c(Cl)cnn1C)c1cccc(NC(=O)C(C)C)c1	-9%
COc1cc(C(=O)NCC(c2ccco2)S(=O)(=O)c2ccccc2)cc(OC)c1OC (centres undefined)	10%
Cc1ccc(C(=O)Nc2ccccc2C(=O)O)cc1S(=O)(=O)N1CCCCCC1	2%
COc1ccc(-c2noc(-c3ccc(N4CCCC4)c([N+](=O)[O-])c3)n2)cc1OC	17%
Cc1ccccc1OC(C)C(=O)N1CCC(Cc2ccccc2)CC1 (centres undefined)	-12%
Cn1[nH]cc(C=NC(N)=O)c1=O	-1%
CCOc1ccc(OC(=O)c2sc3ncn(Cc4cccc(F)c4)c(=O)c3c2C)cc1	19%
O=C(O)CCC(NS(=O)(=O)c1ccc(N2CCCC2=O)cc1)C(=O)O (centres undefined)	-7%
Cc1cc(C)c(NC(=O)Cn2c(=O)n(Cc3ccccc3)c(=O)c3c(C)c(C(=O)N(C)C)sc32)c(C)c1	1%
CCCCCCOC(=O)Cc1c(C)nc(N)[nH]c1=O	9%
O=S(=O)(NCCCO)c1ccc2c(c1)Cc1cc(S(=O)(=O)NCCCO)ccc1-2	0%
Cc1occc1C(=O)NNC(=O)C(c1ccccc1)c1ccccc1	-8%
Cc1ccc(C(=O)N2CCCCC2C(=O)O)cc1S(=O)(=O)N1CCCCC1 (centres undefined)	2%
CCOc1ccc(Nc2nc3ccccc3n2C)cc1	-4%
COc1ccc(-c2noc(CSc3nc4ccccc4c(=O)n3-c3ccccc3)n2)cc1OC	10%
O=C(CN1C(=O)C2C3C=CC(C3)C2C1=O)Nc1nncs1 (centres undefined)	19%
O=C(Nc1ccccc1)NC(Cc1ccc(O)cc1)C(=O)O (centres undefined)	3%
O=C(CCC(=O)NNC(=O)Nc1cccc(Cl)c1)NCc1ccccc1	-12%
O=C(NCCCN1CCOCC1)c1onc(CSc2ccc(F)c(F)c2)c1C(=O)NCCCN1CCOCC1	1%
CCC1(c2ccc(Cl)cc2)NC(=S)N(c2ccc(C)cc2)N1 (centres undefined)	79µM*
Cc1ccnc(NC(=O)CCC(=O)N(CC(=O)NCC2CCCO2)Cc2ccc(F)cc2)c1 (centres undefined)	2%
CC1(C)Cc2c(c(-c3ccco3)nc3sc4c(NCCN5CCOCC5)ncnc4c23)CO1	6%
c1cncc(-c2nn3c(Cn4nnc5ccccc54)nnc3s2)c1	?
CC(NC(=O)c1ccncc1)C(C)(C)C (centres undefined)	-2%
COc1cccc2[nH]c3ccccc3c(=O)c12	-7%
Cn1c(=O)n(CCO)c(=O)c2c1nc(Br)n2Cc1ccccc1	7%
CSc1nncn1/N=C/c1cc(Cl)ccc1F	-7%

Two records drawn at random from those above:
SMILES	VDR inh
CCC1(c2ccc(Cl)cc2)NC(=S)N(c2ccc(C)cc2)N1 (centres undefined)	79µM*
COc1cccc2[nH]c3ccccc3c(=O)c12	-7%

Next part:
SMILES	VDR inh
Cc1c(NCc2ccncc2)cccc1C(=O)O	1%
COc1ccc(Br)cc1/C=N/NC(=O)c1cccc(S(=O)(=O)N2CCOCC2)c1	-2%
Cc1c(NC(=O)CN2CCN(c3ccccc3)CC2)c(=O)n(-c2ccccc2)n1C	20%
O=C(c1ccco1)N1CCCC(c2nc3c(nnn3Cc3ccc(Cl)cc3Cl)c(=O)[nH]2)C1 (centres undefined)	-13%
O=C(Nc1ccc(OC(F)F)cc1)c1cc(S(=O)(=O)N2CCOCC2)ccc1N1CCCC1	-25%
CC(=O)c1ccc(NS(=O)(=O)c2cc3c(cc2C)N(C(C)=O)CCO3)cc1	-4%
COCCNC(=O)c1cc2sc3ccccc3c2s1	-12%
Nc1ccc(C(=O)N2CCCC2)cc1	25%
Cc1ccc(Nc2ncc3c(=O)[nH][nH]c(=O)c3n2)cc1	11%
CCSCCNC(=O)c1cncc(Br)c1	7%
O=C(O)CN1C(=O)SC(Nc2ccc(Cl)cc2)C1=O (centres undefined)	16%
Cc1cc(OCC(=O)NNC(=O)CCc2ccccc2)ccc1Br	10%
Cc1cccc(CS(=O)(=O)Cc2ccc(C(=O)NC3CCCCCC3)o2)c1	7%
O=C(CCNC(=O)c1ccccc1Cl)Nc1cc(C(F)(F)F)ccc1Cl	9%
COc1cccc(C(=O)COc2cccc(NC(=O)c3ccco3)c2)c1	-2%
c1ccc(N2CCN(Cc3ccsc3)CC2)nc1	-6%
COCCNC(=O)c1cc(-c2ccc(Cl)c(Cl)c2)on1	-10%
CC(=NNC(=O)c1ccncc1)c1cccc(Br)c1	10%
C=CCNc1nc(C)c(C(C)=O)cc1C#N	-17%
Cc1cccc(NCc2ccccc2OCc2ccccc2F)c1	-18%
COc1ccc(OC)c(-c2c(C#N)c(N)nc3c2c(=O)nc2sccn23)c1	-1%
Cc1nn(-c2ccccc2)c(-n2cccc2)c1C(=O)NCCCN1CCN(c2ccccc2F)CC1	13%
Cc1ccc(OCC(=O)Nc2cc(S(=O)(=O)N3CCCCC3)ccc2C)c([N+](=O)[O-])n1	-1%
O=C(NCc1nnc2c3ccccc3c(-c3ccccc3)nn12)c1ccccc1Cl	-9%
CCOC(=O)CCC(NC(=O)CCCCCCCCC(=O)NC(CCC(=O)OCC)C(=O)OCC)C(=O)OCC (centres undefined)	-7%
CC(C)c1nccn1S(=O)(=O)c1cc(Cl)ccc1Cl	-5%
CCOc1ccc2[nH]c3ncccc3c(=O)c2c1	16%
CCN1CCc2c(C#N)c(N3CCOCC3)nc(N3CCOCC3)c2C1	-12%
Cc1[nH][nH]c(=O)c1C=NCc1cccs1	3%
C/C(=N\O)C1/C(=N/O)CC2C1C2(C)C (centres undefined)	-2%

Some of these compounds in order of their number in VDR inh, lowest first.
SMILES	VDR inh
O=C(NCc1nnc2c3ccccc3c(-c3ccccc3)nn12)c1ccccc1Cl	-9%
C/C(=N\O)C1/C(=N/O)CC2C1C2(C)C (centres undefined)	-2%
Cc1ccc(OCC(=O)Nc2cc(S(=O)(=O)N3CCCCC3)ccc2C)c([N+](=O)[O-])n1	-1%
Cc1[nH][nH]c(=O)c1C=NCc1cccs1	3%
Cc1nn(-c2ccccc2)c(-n2cccc2)c1C(=O)NCCCN1CCN(c2ccccc2F)CC1	13%
CCOc1ccc2[nH]c3ncccc3c(=O)c2c1	16%

Following part
SMILES	VDR inh
O=C(CN1CCN(c2ccc(F)cc2)CC1)Nc1ccc(-n2cnnn2)cc1	-23%
COc1cc2nc(NC(=O)c3ccc(S(=O)(=O)N4CCOCC4)cc3)sc2cc1OC	6%
O=C(c1cccc(NS(=O)(=O)c2ccc(F)c(F)c2)c1)N1CCN(C(c2ccccc2)c2ccccc2)CC1	7%
O=C(NCCC(=O)N1CCN(c2ccccn2)CC1)c1ccc([N+](=O)[O-])cc1	4%
O=C(NC1CCCCCC1)C(=S)NCCc1ccccc1	?
COc1ccc(O)c(/C=N\NC(=O)CCn2nnc3ccccc32)c1	8%
Oc1ccc(-c2[nH]ncc2-c2cnn(-c3ccccc3)c2)c(O)c1	-4%
O=C(NCc1nnc(SCC(=O)N2CCCc3ccccc32)o1)c1c(F)cccc1Cl	-4%
CC(=O)N(Cc1ccccc1)C1CC(=O)N(Cc2ccccc2)C1=O (centres undefined)	3%
CCCOc1ccc(NC(N)=O)cc1OCCC	-3%
CC(=O)c1cccc(NC(=O)c2cnn(-c3cccc(C)c3)c2-n2cccc2)c1	14%
CC(Oc1ccccc1)C(=O)N1CCC2(CC1)Oc1ccc(F)cc1C(=O)C21CC(c2ccc(Cl)cc2)=NO1 (centres undefined)	-12%
O=C(O)c1ccc(-c2noc(-c3cccc(F)c3)n2)cc1	3%
CN(C)S(=O)(=O)c1ccc(C(=O)OCC(=O)Nc2ccccc2OC(F)F)cc1	7%
CC(C)Cn1c(C(C)C)nc([N+](=O)[O-])c1Sc1ccc(Cl)cn1	6%
Cc1cccc(NC(=O)/C(C#N)=C\c2cn(CC(=O)O)c3ccccc23)c1	2%
CCn1c(=O)n(CC)c2cc(S(=O)(=O)Nc3ccccc3C)c(C)cc21	11%
O=C(CSc1nc(Nc2ccccc2)nc(N2CCOCC2)n1)Nc1ccc2c(c1)OCCO2	-7%
COc1ccccc1Oc1ccc2c(c1)C(=O)N(c1ccc(Br)c3cccnc13)C2=O	11%
CCOc1ccc(-n2c(SC(C)C)nc3c(c2=O)SCC3)cc1	-1%
Cc1ccccc1C(=O)Nc1cccc(-c2ccc3nncn3n2)c1	13%
C[C@@H](C[C@@H](O)[C@H](O)C(C)(C)O)[C@@H]1CC[C@]2(C)C3=CC[C@H]4C(C)(C)C(=O)CC[C@]4(C)[C@H]3CC[C@@]12C	-17%
COc1cc(C(C)=O)ccc1Oc1ncnc2c1cnn2-c1ccccc1	9%
Nc1c(C(=O)N2CCCC2)sc2nc(-c3ccccc3)ccc12	8%
Cc1cnc(NC(=O)c2nn(C)cc2[N+](=O)[O-])s1	0%
O=C(CSc1ccc(-c2nc3ccccc3[nH]2)cn1)N1CCN(C(=O)c2ccco2)CC1	?
CN(C)c1ccc(CNC(=O)c2ccc(CNc3c(N4CCCCC4)c(=O)c3=O)cc2)cc1	-2%
COc1ccc(C(=O)Oc2c(CN3CCOCC3)cc(Cl)c3cccnc23)cc1OC	-22%&-18%

An excerpt from above in order of molecular weight, falling.
SMILES	VDR inh
CN(C)c1ccc(CNC(=O)c2ccc(CNc3c(N4CCCCC4)c(=O)c3=O)cc2)cc1	-2%
COc1ccc(C(=O)Oc2c(CN3CCOCC3)cc(Cl)c3cccnc23)cc1OC	-22%&-18%
Cc1cnc(NC(=O)c2nn(C)cc2[N+](=O)[O-])s1	0%

A portion of the library; the hit share may differ from the screen's.
